RanGTP-Impb inh: disruptors of Ran-importin-beta complex formation – biochemical, FRET, CFP-Ran, YFP-importin-beta, homogeneous, primary screen | cell-free CFP-Ran/YFP-importin-beta FRET ratio | actives 1.1% (n = 300,000) | inhibition, % (test concentration not listed) | AID 2216;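 active = most replicates above 15%; inconclusive = exactly half above 15%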;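 note: 0% = DMSO wells and 100% = Ran loaded with GDP instead of GTP; wells of about 40 µL received 100 nL stock; the first replicate is given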
MLL AF4-AF9 inh: blocks AF4 peptide binding to human AF9 | P42568 | AlphaScreen, biotin-AF4 peptide binding to FLAG-AF9 | inhibition, % at 10 µM | actives 0.47% (n = 350,000) | AID 651704;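 active = every replicate reaching a set inhibition limit, whatever the replicate mean, cut at about 25% in these data; inconclusive = mean inhibition reaches that limit but some replicates miss it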;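 note: 0% = plate neutral control median and 100% = total signal loss; the record names both 10 and 1 µM as test concentration; the first replicate is given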
Target sequence (P42568 whole entry, looked up): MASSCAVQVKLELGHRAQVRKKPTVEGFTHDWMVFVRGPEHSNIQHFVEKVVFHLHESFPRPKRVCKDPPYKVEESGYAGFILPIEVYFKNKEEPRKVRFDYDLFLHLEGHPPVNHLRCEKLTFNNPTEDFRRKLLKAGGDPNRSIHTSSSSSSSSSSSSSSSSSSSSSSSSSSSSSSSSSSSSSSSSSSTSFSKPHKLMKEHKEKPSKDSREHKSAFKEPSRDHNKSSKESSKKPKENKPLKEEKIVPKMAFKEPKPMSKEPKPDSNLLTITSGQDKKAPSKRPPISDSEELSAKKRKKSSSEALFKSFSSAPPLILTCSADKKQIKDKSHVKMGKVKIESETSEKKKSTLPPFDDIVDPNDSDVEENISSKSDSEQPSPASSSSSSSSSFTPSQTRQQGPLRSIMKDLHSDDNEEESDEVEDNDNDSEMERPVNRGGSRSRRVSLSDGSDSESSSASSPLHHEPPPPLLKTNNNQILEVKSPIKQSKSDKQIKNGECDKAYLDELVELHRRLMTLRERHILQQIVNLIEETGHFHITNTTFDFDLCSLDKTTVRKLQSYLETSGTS
Beta cell apopt: blocks beta cell apoptosis; INS-1E cytokine-induced death, ATP luminescence, 48 h; percent of positive-control rescue, neutral wells zero; protection from apoptosis, % (concentration not given with the values); actives 0.8% (n = 300,000); AID 435005;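 active = all replicates at 75% or more, or half of them and the mean; inconclusive = half reach 75% but not the mean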;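 note: 0% = cytokine-treated negative control wells and 100% = positive control rescue; higher means more ATP so stronger rescue from cytokine killing; wells of about 40 µL received 100 nL stock; the first replicate is given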
T cruzi repl: T. cruzi replication inhibition; T. cruzi beta-gal in NIH3T3, luminescence, 90 h; inhibition, % (test concentration not listed); actives 1.4% (n = 300,000);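 active = mean inhibition across valid replicates above about 55%, limit read from the data; inconclusive = mean below that limit but half or more replicates reach it; inactive = mean below it, under half of replicates reach it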;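 note: signal also drops with host cell toxicity which is not excluded here; 0% = plate median of DMSO wells and 100% = zero luminescence signal; higher percent means less beta-gal luminescence so fewer parasites; stock transfer was 50 nL into about 50 µL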
Bfl-1 A1 inh: inhibitors of the anti-apoptotic protein A1, read as caspase activation; actives 0.066% (n = 330,000); caspase activation, % (no concentration beside the values); MEF A1-2A-BIM cells, Caspase-Glo 3/7 luminescence, 3 h; percent of clofoctol response, vehicle zero; AID 2462;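 active = over half of replicate activation scores above 10%, or exactly half above 10 with the replicate mean above 10; inconclusive = replicate mean below 10 yet half the replicates above 10; inactive = over half of replicates below 10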;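 note: wells of about 30 µL received 50 nL stock; many hits fall short of the cut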
Calb FLC: affects C. albicans growth with fluconazole; C. albicans CaCi-2 (fluconazole-resistant clinical isolate) + fluconazole, Alamar Blue growth, 48 h; growth inhibition, % (concentration not given with the values); actives 0.57% (n = 300,000);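 active = most replicates above 75%; inconclusive = exactly half above 75%; inactive = most below 75%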;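 note: all wells also contain fluconazole at 8 µg/ml as a sub-toxic cotreatment; 0% = median of DMSO wells and 100% = median of geldanamycin control wells; wells of about 8 µL received 7.5 nL stock; the first replicate is given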
LANA-H2A inh: blocks KSHV LANA binding to histone H2A/H2B; Q9QR71; cell-free LANA-H2A/H2B peptide, fluorescence polarization; inhibition, % (concentration not given with the values); actives 0.6% (n = 320,000); AID 2629; in the data active = inhibition mostly above about 10%, no sharp cut-off; inactive = mostly below about 6.7%;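 note: stock transfer was 7.5 nL into about 10 µL; 0% = median of vehicle wells and 100% = median of positive control wells; one replicate is shown; the record names a cut of 25% in any replicate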
Vif A3G: inhibitors of Vif binding to APOBEC3G peptide, primary screen, biochemical, TR-FRET, GST-Vif 1-94, biotin-A3G peptide, dose response retest (AID 1117319). actives 0.57% (n = 260,000). TR-FRET GST-Vif / biotin-A3G peptide binding; higher % means a stronger effect; test concentration not given here; strong numbers were not always called active. inhibition, %, or IC50 in µM where a hit was titrated;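 active = above the screen mean plus three standard deviations and confirmed in dose response; inconclusive = results disagree or hit not tested in dose response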;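 note: Vif residues 1-94 fused to GST binding biotinylated APOBEC3G peptide 110-148; 0% = full assay without inhibitor and 100% = GST in place of GST-Vif; retest series ran down from 100 µM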
* marks the source's active call; other numbers are inactive results; u = inconclusive; x = not tested or not shown. Rows are unselected; overall some 4.3% were active at least once.

SMILES | RanGTP-Impb inh | MLL AF4-AF9 inh | Beta cell apopt | T cruzi repl | Bfl-1 A1 inh | Calb FLC | LANA-H2A inh | Vif A3G
Cc1ccc(OCC(=O)NNC(=O)C2CSC3(C)CCC(=O)N23)cc1 (stereo not given) | 1.4 | 1.8 | -4 | -3 | 0.5 | 5 | 6.3 | 0%
O=C(COC(=O)c1n[nH]c2ccccc12)Nc1ccccc1F | x | -3.4 | 4 | x | -1.3 | x | -2.9 | -6%
COc1cc(/C=N/Nc2nc3ccccc3o2)cc(OC)c1O | 9.0 | x | -3 | -3 | 0.4 | 10 | -3.7 | 19%
CCOC(=O)C1CCN(c2c(N3CCCCCC3)c(=O)c2=O)CC1 | -0.2 | 1.4 | 0 | -1 | -0.6 | 7 | 3.7 | 11%
O=C(O)C1CCCCC1C(=O)NCCCn1ccnc1 (stereo not given) | -0.6 | 7.3 | -4 | -6 | -0.5 | -2 | 1.9 | 12%
CC(C)CCN(C(=O)c1csnn1)C(C(=O)NC1CCCC1)c1ccc(F)cc1 (stereo not given) | 4.5 | 2.0 | -3 | 1 | -0.1 | -11 | -5.6 | -3%
CC(C)NC(=O)Cn1nnc(-c2cccc(NC(=O)c3ccccc3F)c2)n1 | 3.0 | x | 2 | -18 | -0.7 | -2 | -1.9 | u
O=S(=O)(c1ccc(Cl)cc1)N1CCC(c2nc3ccccc3[nH]2)CC1 | 1.7 | -1.6 | 4 | 0 | -0.1 | -14 | 0.4 | 29%
Cc1cc(OCC(=O)Nc2ccccn2)c2c(C)cc(=O)oc2c1 | -2.6 | -1.1 | x | 1 | 0.5 | -1 | 5.6 | x
O=C(CN(c1ccccc1Cl)S(=O)(=O)c1ccccc1)N/N=C/c1ccccc1C(=O)O | -2.1 | -0.3 | -4 | -6 | 0.0 | 17 | 4.7 | 8%
CCNC(=O)CNC(=O)c1nn(Cc2ccccc2)c(=O)c2ccccc12 | 2.2 | -4.0 | x | 0 | 0.7 | 2 | 2.5 | x
CCOC(=O)c1sc2ncn(CC(=O)N(CC)CC)c(=O)c2c1C | -6.0 | -7.7 | 4 | 5 | -0.2 | -3 | 5.3 | -2%
O=C(NCCS(=O)(=O)N1CCN(c2cccc(Cl)c2)CC1)c1ccco1 | -2.6 | 5.6 | 3 | 6 | 0.8 | 9 | -0.9 | 2%
C/C(CCc1oc2c(Br)cc(Br)cc2c1-c1ccc(C)o1)=N\O | -1.0 | 5.4 | -4 | 45 | 0.1 | -17 | -0.8 | 16%
COc1ccc(-c2noc(C3CCCN(C(=O)c4c(F)cccc4F)C3)n2)cc1OC (stereo not given) | -2.3 | 0.5 | -8 | 4 | -1.0 | 3 | 1.5 | x
Cc1cc(C=O)c(C)n1-c1sc2c(c1C(=O)O)CCCC2 | 5.0 | x | -2 | -8 | 0.4 | 5 | -3.4 | x
CCCCCC(=O)NC(=S)Nc1cccc(-c2nc3ncccc3o2)c1 | 3.5 | -0.8 | -1 | 7 | 0.6 | 10 | 4.3 | -94%
CC(=O)c1nn(-c2ccc(Cl)cc2)cc1C(=O)c1ccccc1 | 7.2 | -2.1 | x | x | 2.0 | -3 | 2.6 | x
O=C(CN(C(=O)c1csnn1)c1cccc(C(F)(F)F)c1)NCCc1ccccc1 | u | -1.9 | -6 | -4 | -0.5 | -2 | -4.8 | x
CNC(=O)c1sc(N2N=C3/C(=C/c4ccccc4)CCCC3C2c2ccccc2)nc1C (stereo not given) | -1.2 | 4.7 | 98* | 41 | -0.7 | 18 | -1.0 | -5%
Cc1ccc(OCCCCCN2CCOCC2)cc1 | 0.2 | 3.6 | 0 | -12 | -0.1 | -1 | -0.8 | -6%
Cc1ccc(N2CCN(S(=O)(=O)c3ccc(F)c(C)c3)CC2)c(C)c1 | -2.2 | x | 4 | 5 | 0.6 | 3 | -2.1 | 7%
COC(=O)c1ccc(S(=O)(=O)N2CCCN(Cc3ccccc3)CC2)n1C | -3.1 | 0.2 | -3 | 12 | 0.3 | 22 | 3.5 | -6%
COc1ccc(S(=O)(=O)N2CCCCCC2)cc1C(=O)N1CCN(c2ccccc2C)CC1 | x | 2.9 | 6 | x | 0.0 | x | -0.4 | -7%
O=c1c2ccccc2n(CC(O)CN2CCCCC2)c2ccccc12 (stereo not given) | 96* | -17 | -1 | 22 | 0.0 | 13 | -2.5 | 2%
COc1ccc(CN(C)C(=O)C2CSC3(C)CCC(=O)N23)cc1 (stereo not given) | -3.0 | 16 | -4 | -9 | -5.0 | x | 3.0 | -2%
CCOc1ccc(CN(C)C(=O)c2ccc(=O)[nH]c2)cc1 | 4.7 | -0.2 | -2 | -4 | -0.2 | -1 | -5.2 | x
COc1ccc(C(=O)Nc2ccc3c(c2)C(=O)N(C)C3=O)cc1OC | -1.3 | x | 2 | 3 | -10 | -11 | -3.6 | -9%
CCCC(=O)Nc1cc(OC)c(OC)cc1C(=O)O | -4.1 | x | -5 | -12 | 0.0 | 3 | 1.7 | -5%
CC1(C)Cc2nc(NCCCO)c(C#N)cc2CO1 | -2.8 | x | -5 | -5 | 0.2 | -4 | -7.9 | -5%
CSc1snc(SCC(N)=O)c1C#N | 1.6 | x | -6 | -15 | -0.2 | -5 | -0.2 | 0%
CC(=O)N1CCc2cc(S(=O)(=O)NC(C(=O)N3CCN(c4ccccc4F)CC3)C(C)C)ccc21 (stereo not given) | -1.5 | -0.1 | -10 | -1 | -0.1 | -2 | -0.9 | x
O=C(Nc1ccncc1)c1cccc2ccccc12 | -2.7 | -1.3 | 8 | 9 | 0.3 | -3 | 0.7 | -9%
CCOC(=O)N1CCN(CC(=O)N2c3ccccc3Sc3ccccc32)CC1 | 2.6 | -0.8 | 7 | 1 | -0.6 | 13 | 0.8 | -3%
CC1(c2ccccc2)NC(=O)N(CC(=O)Nc2ccccc2N2CCCC2)C1=O (stereo not given) | -0.9 | 9.8 | -4 | 6 | -0.2 | 4 | -7.4 | 3%
Cc1ccc(-n2c(C)cc(C(=O)COC(=O)c3c(C)noc3C)c2C)cc1 | -2.0 | x | 61 | 11 | -4.6 | 0 | 7.1 | u
CC(=O)N1c2ccc(S(=O)(=O)N(C)CC(=O)NC3CCCCC3C)cc2CC1C (stereo not given) | 3.0 | x | 3 | -7 | -0.8 | -3 | 1.1 | 6%
CC1CN(CC(=O)NCc2ccc(F)cc2)CC(C)O1 (stereo not given) | 1.7 | 0.1 | -8 | -5 | 0.0 | -2 | -5.1 | x
CN(Cc1ccccc1)c1cc(Cl)nc(N)n1 | 0.4 | -0.2 | -4 | -13 | 0.8 | -14 | 1.8 | -4%
O=C(O)CCc1ccc(-c2cccs2)n1CC1CCCO1 (stereo not given) | 18* | x | -2 | -15 | -0.7 | 2 | 2.2 | 5%
CCCCOc1ccc(C(=O)OC2CC(C)N(C)CC2C)cc1 (stereo not given) | 0.5 | x | -4 | 48 | 0.3 | 8 | 2.4 | 7%
COc1ccc(C(=O)Nc2ccc(N3CCCC3)cc2)cc1Br | -0.4 | 9.0 | 3 | 8 | 0.1 | -3 | -11 | 0%
COc1ccc(OC)c(CNC(=O)C2CCN(S(=O)(=O)N3CCC(C)CC3)CC2)c1 | 1.0 | 0.0 | -1 | -17 | -0.5 | -8 | -3.7 | x
COc1cccc2cc(-c3cn4cccc(C)c4n3)c(=O)oc12 | 0.0 | x | -2 | -1 | -5.0 | -4 | -0.4 | x
CSc1c[n+]2c(n1C)CCC2 | 5.4 | x | -7 | 6 | -0.5 | 0 | -3.4 | 2%
O=C(COC(=O)c1ccc[nH]c1=O)NCCCc1ccccc1 | x | 0.0 | 0 | x | 0.0 | x | -2.3 | -1%
CC1CCN(S(=O)(=O)N2CCC(C(=O)NCc3ccc4c(c3)OCO4)CC2)CC1 | 1.5 | x | 0 | 7 | 0.7 | -3 | 2.1 | 20%
O=C(Nc1cnc2ccccn2c1=O)c1ccc(Cl)cc1Cl | -1.4 | -2.7 | -6 | -5 | -0.1 | 3 | 3.1 | 4%
O=C(COC(=O)c1ccc2c(c1)OCO2)NC1CCCCC1 | x | 0.5 | -12 | x | 1.3 | x | -3.3 | -7%
COc1ccc(C(CNC(=O)C(CCSC)NC(=O)c2ccccc2OC)N2CCCCC2)cc1 (stereo not given) | 0.3 | 5.3 | 2 | 23 | 0.7 | -16 | -3.6 | x
Cc1onc(-c2ccccc2)c1C(=O)NNC(=S)NC(=O)/C=C/c1cccs1 | 2.2 | x | 16 | -1 | -0.1 | -10 | -5.9 | 13%
CC1CN(C(=S)NC(=O)c2ccccc2)CC(C)O1 (stereo not given) | -3.0 | -0.9 | 1 | -3 | 0.1 | -1 | -1.0 | x
C/C(Cl)=C/CSc1nnc2n(N)c(=O)c3ccccc3n12 | -0.3 | x | 2 | 3 | 0.5 | u | -2.4 | -8%
CS(=O)(=O)N1CCc2cc(S(=O)(=O)N3CCN(Cc4ccc5c(c4)OCO5)CC3)ccc21 | 5.6 | x | x | 23 | -1.1 | -2 | 0.0 | 15%
Cc1cccc(NC(=O)Cn2cc([N+](=O)[O-])cn2)n1 | -3.4 | -17 | -7 | -9 | -0.9 | -5 | -3.0 | 7%
Cc1ccc(SCCNC(=O)c2ccc(C)c(S(=O)(=O)Nc3cccc(C)c3)c2)cc1 | 4.1 | x | 5 | 51 | 0.0 | 16 | 2.8 | u
CC(C)(C)C(=O)Cn1c(=N)n(Cc2ccccc2Cl)c2ccccc21 | -3.5 | x | 28 | 57* | 0.6 | 0 | -1.2 | -1%
NC(N)=N/N=C/c1ccc(Br)cc1 | -0.8 | 6.2 | 8 | 67* | 0.0 | 4 | -2.9 | 15%
CCOC(=O)c1cc2c(n(-c3ccc(Cl)cc3)c1=O)CCCC2=O | 8.0 | 0.3 | -6 | 3 | 0.1 | 38 | 0.1 | x
O=C1NC(Cc2ccccc2)c2nc3ccc(F)cc3c(=O)n2-c2cc(Cl)ccc21 (stereo not given) | x | -0.1 | -3 | x | -0.6 | x | -2.1 | x
Going on with the list:
SMILES | RanGTP-Impb inh | MLL AF4-AF9 inh | Beta cell apopt | T cruzi repl | Bfl-1 A1 inh | Calb FLC | LANA-H2A inh | Vif A3G
O=C(Nc1ncnc2sc3c(c12)CCCC3)c1ccncc1 | -1.4 | -3.0 | x | -10 | -0.1 | 31 | 4.3 | 16%
Cc1ccccc1NC(=O)c1nc[nH]c1C(=O)NCc1ccccc1 | 2.6 | x | -6 | -17 | 0.4 | 38 | 2.1 | -1%
CCN1CCN(c2cc(=O)n(Cc3ccc(F)cc3)c(=O)[nH]2)CC1 | 29* | 0.8 | -5 | 12 | 0.7 | -16 | 2.1 | -2%
Cc1cc(C)cc(OCC(=O)NNC(=O)CN2C(=O)c3ccccc3C2=O)c1 | x | x | -4 | x | 1.3 | x | 7.4 | 68%
COc1ccc(NC(=O)c2ccc(C)cc2Cl)c([N+](=O)[O-])c1 | 1.4 | x | 8 | -2 | 0.0 | 2 | -2.2 | -7%
C[C@H](NC(=O)c1nc[nH]c1C(=O)NCCCCCNC(=O)OC(C)(C)C)c1ccccc1 | x | 9.4 | 5 | x | 0.2 | x | 1.3 | x
